From PubChem BioAssay
GIV Gai3 FP = GIV-Galpha-i interaction inhibition | Galpha-i3/FITC-GIV peptide fluorescence polarization, 90 min; stronger effect = lower value; scaled: aluminum fluoride 0%, vehicle 100% | percent of control (FP), % (concentration not given with the values) | actives 0.42% (n = 210,000);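 active = replicate mean at 85% of control or lower, very high polarization wells dropped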;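 note: wells of about 15 µL received 100 nL stock; the first replicate is given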
Target sequence (P08753 whole entry, looked up): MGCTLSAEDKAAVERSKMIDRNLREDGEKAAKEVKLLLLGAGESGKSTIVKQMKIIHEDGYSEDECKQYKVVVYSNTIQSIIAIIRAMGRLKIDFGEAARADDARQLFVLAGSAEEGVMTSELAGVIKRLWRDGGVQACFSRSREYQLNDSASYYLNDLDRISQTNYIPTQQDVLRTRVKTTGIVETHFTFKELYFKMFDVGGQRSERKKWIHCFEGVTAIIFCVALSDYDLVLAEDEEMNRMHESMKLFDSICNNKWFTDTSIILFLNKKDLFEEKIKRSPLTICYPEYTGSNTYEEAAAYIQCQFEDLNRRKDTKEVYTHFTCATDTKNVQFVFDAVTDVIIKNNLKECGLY
HCMV UL50-53 inh = inhibitors of HCMV UL50-UL53 nuclear egress complex interaction; actives 0.15% (n = 190,000); HTRF UL50-UL53 interaction, normalized percent inhibition; inhibition, % (test concentration not listed);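 active = both replicates at 50% or more, plus weaker picks with an unusually low signal ratio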;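 note: stock transfer was 100 nL into about 20 µL; 0% = negative control wells and 100% = wells with untagged competitor protein; inactives centre near -12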
Sa growth inh = blocks Staphylococcus aureus growth; S. aureus RN4220 growth, OD600, 20 h, 42 °C; stronger effect = lower value; relative growth, % (test concentration not listed); actives 0.53% (n = 170,000);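 active = growth at 42 °C up to 50% and 20 or more points under that at 30 °C, or under 10% at both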;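 note: 300 nL library stock went into each well; scaled to the means of positive and negative controls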
Sa growth inh second temp = also measured in Sa growth inh; calls as there; relative growth, %; measured here: growth at 30 °C;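 optical density after 20 h as mean of two plates; 100% = untreated growth and lower means inhibition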
Numbers without * were called inactive; / = no result given; & = joins results of further samples; ! = repeats disagree.

canonical_smiles,GIV Gai3 FP,Sa growth inh second temp,Sa growth inh,HCMV UL50-53 inh
Cc1nc(SCC(=O)NCC2CCCO2)nc(C)c1C (stereo not given),/,92,91,-7
O=C(Nc1ccc(OC(F)(F)F)cc1)c1noc2c1CCCC2,103,94,96,-14
Cc1ccc2[nH]c3c(c2c1)CCN(C)C3=O,101,/,/,-30
Cc1cc2c(c(=O)o1)C1(C(=O)N(CC(=O)O)c3ccccc31)C(C#N)=C(N)O2 (stereo not given),/,87,93,-19
CC(C)(C)c1cs/c(=N/c2ccccn2)n1-c1ccc(Cl)cc1,103,89,87,-9
COc1cccc(-n2nnc(-c3nc(-c4ccccc4)no3)c2N)c1,103,/,/,16
CC1CCCN(c2ccc(N)cc2)C1 (stereo not given),108,53,72,-24
CC(C)Oc1ccccc1NC(=O)CSc1nccn1C,102,87,105,-32
O=C(O)COc1ccccc1/C=C1/C(=O)Nc2ccc(Cl)cc21,/,88,128,-54
COc1ccc(NC(=O)CN(C)C)cc1,106,104,95,-8
COc1ccc(S(=O)(=O)[C@H]2CS(=O)(=O)C[C@@H]2NCCc2c[nH]c3ccccc23)cc1,99,/,/,-14
COc1ccc(C2NC(=O)NC(C)=C2C(=O)OCC2CCCO2)cc1OCc1ccccc1 (stereo not given),101,/,/,-8
Cc1ccc2nc3sc(C(=O)Nc4ccc(F)cc4)cc3cc2c1,102,76,80,/
N/C(=N\C(=O)Nc1ccccc1)N1CCN(Cc2ccccc2)CC1,101,100,110,23
O=C1/C(=C/c2ccccc2)Oc2c1ccc(O)c2CN1CCCC1,115,99,94,7
Clc1ccc(OCCCc2nc(-c3cccnc3)n[nH]2)c(Cl)c1,/,93,104,8
CCOC(=O)N1CCN(c2nc(-c3cccnc3)nc3ccccc23)CC1,/,85,96,-27
FC(F)(F)c1cnc(N2CCN(CCOCc3ccc(Cl)cc3)CC2)c(Cl)c1,100,/,/,-5
COc1ccc(C2CC(c3ccc(NS(C)(=O)=O)cc3)=NN2C(=O)CCCC(=O)O)cc1 (stereo not given),102,/,/,-56
Cc1sc2nc(-c3cccc([N+](=O)[O-])c3)oc(=O)c2c1C,106,/,/,-8
COc1ccc(NC(=O)c2oc3ccccc3c2NC(=O)Cc2cccs2)c(OC)c1,107,89,96,11
CC12CN3CC(C)(CN(C1)C3c1ccc(OCc3ccccc3)cc1)C2=O (stereo not given),95,88,85,-30
CCCC(C)C(=O)Nc1nc2ccccc2s1 (stereo not given),103,70,100,-11
Cc1c(C(=O)NCc2ccc(OC(C)C)cc2)cc(-c2ccccc2)n1C,103,/,/,-24
N#C/C(=C\Nc1ccccn1)C(=O)C1CC1,108,92,102,-52
CC1CCN(C(=O)c2cc3ccccc3o2)CC1,/,94,126,4
COCCNC(=O)CCc1nc2cccnc2n1Cc1ccc(OC)cc1,109,97,98,16
CCOc1ccc(Nc2nc(C)c(NC(=O)c3cc(OC)cc(OC)c3)c(Nc3ccc(OCC)cc3)n2)cc1,103,/,/,-13
O=C(C1CCCN(c2nc3ncccc3n3cccc23)C1)N1CCCCC1 (stereo not given),121,/,/,-19
CCC(C(=O)NCc1ccccc1Cl)n1c(=O)c2cccn2c2ccccc21 (stereo not given),97,93,112,-6

One compound at a time (already shown).
O=C(Nc1ccc(OC(F)(F)F)cc1)c1noc2c1CCCC2 reads GIV Gai3 FP: 103; Sa growth inh second temp: 94; Sa growth inh: 96; HCMV UL50-53 inh: -14
O=C1/C(=C/c2ccccc2)Oc2c1ccc(O)c2CN1CCCC1 reads GIV Gai3 FP: 115; Sa growth inh second temp: 99; Sa growth inh: 94; HCMV UL50-53 inh: 7

The listing continues.
canonical_smiles,GIV Gai3 FP,Sa growth inh second temp,Sa growth inh,HCMV UL50-53 inh
N#C/C(=C/c1cccc2ccccc12)c1ccccc1,/,97,78,-16
Cc1cccc(-c2nc3c4ccccc4nc(NCc4ccc(F)cc4)n3n2)c1,105,92,89,12
COc1ccc(Cl)cc1NC(=O)Cn1c(=O)n(Cc2ccco2)c(=O)c2cccnc21,106,88,113,-23
CC(CCc1ccccc1)NC(=O)CSc1nc(-c2ccc3c(c2)OCO3)nc2cc(=O)[nH]n12 (stereo not given),105,/,/,8
O=S(=O)(/C=C/c1ccccc1)N1CCN(c2ncc(C(F)(F)F)cc2Cl)CC1,/,98,96,-20
CC1CC(=O)Nc2ccccc2N1S(=O)(=O)c1cccc2nonc12 (stereo not given),109,83,92,-30
COC(=O)c1sccc1N(C)S(C)(=O)=O,103,92,100,1
COc1cc2c(cc1N=Cc1cccnc1)oc1ccccc12,/,79,102,-12
CCCc1nnc(N)s1,/,99,107,6
CN(C(=O)CSc1nc2ccccc2n1CCC#N)c1ccccc1,/,89,107,-2
COC(=O)c1ccc(NC(=O)CC2C(=O)N(c3cccc(C)c3)C(=O)N2Cc2ccco2)cc1 (stereo not given),103,82,129,/
Cc1nc(/N=C(\N)NC(=O)NC2CCCCC2)nc2ccccc12,/,76,68,-18
COc1ccc(-c2nc(SCC(=O)Oc3ccc(Cl)cc3)n3[nH]c(=O)cc3n2)cc1,105,/,/,-17
COc1ccc(NC(=O)c2nnn(Cc3ccc(Br)cc3F)c2N)c(OC)c1,103,67,88,-10
COc1ccccc1NS(=O)(=O)c1ccc(NC(=O)c2nc3ncccn3n2)cc1,105,77,90,-24
Cc1nc2nc(NCc3ccccc3Cl)[nH]n2c(=O)c1Cc1ccccc1,105,89,104,-13
O=c1cc(O)c2sc(SCCN3CCOCC3)nc2[nH]1,108,70,58,/
O=C(CCCCn1c(=O)c2ccccc2n(Cc2cccc(F)c2)c1=O)NCCc1ccccc1,103,94,94,17
O=C(CSC(=O)c1ccccc1)Nc1ccc(C(F)(F)F)cc1,/,84,104,-34
O=C(c1cccc(N2C(=O)CCS2(=O)=O)c1)N1CCCC1,111,/,/,-24
Cc1ccc(NC(=O)C2CCN(Cc3cnn(-c4ccccc4)c3-n3cccc3)CC2)c(C)c1,110,/,/,-30
Cc1ccc2cc(CN(CCO)C(=O)NCc3ccccc3)c(=O)[nH]c2c1,105,105,111,-2
CN(C)S(=O)(=O)c1ccc(SCC(=O)N2CCNC2=O)nc1,/,94,77,-33
Brc1ccc(-c2nc3ccccn3c2Sc2ccccc2)cc1,104,/,/,9
CCOc1ccc(C(=O)Nc2onc3c2CCCC3)cc1,97,89,113,-20
Cn1c(=O)c(=O)n(C)c2cc(S(=O)(=O)CCC(=O)N3CCOCC3)ccc21,101,87,108,2
O=C(COC(=O)C1CCCCC1)Nc1cccc(F)c1,/,99,100,1
CCC(=O)NCc1csc(-c2ccc(OC)cc2)n1,99,/,/,-46
Cc1cc(NC(=O)COc2ccccc2)n(-c2ncnc3c2cnn3-c2ccc(Cl)cc2)n1,101,/,/,-29
CCN(CC(=O)NCc1ccc(F)cc1)C(=O)c1ccc(C)o1,/,87,94,-6
CCCc1cnc(N2CCSCC2)nc1,105,81,99,/
C/C(=N\NC(=O)c1ccoc1C)c1cccc2ccccc12,95,81,94,-43
O=C(NC1CC1)c1cc2c(ccc3ccccc32)oc1=O,101,96,96,-117
Cc1nc2nc(-c3ccccc3)cn2nc1C,/,86&86,120&118,-101&-45
CSc1scc2c1-c1nc(SCC(=O)C(C)(C)C)ncc1CC2,105,81,94,-10
Cc1c(Cl)c(-c2n[nH]c(=S)n2Cc2ccco2)nn1C,104,82,88,-15
CCn1cnc2c(cnn2-c2ccc(Cl)cc2)c1=O,106,73,100,4
Cc1ccc(S(=O)(=O)Nc2nc3n(n2)C(c2ccc(Cl)cc2)C=C(c2ccccc2)N3)cc1 (stereo not given),-66*!,25,70,-54&-7
CC(=O)c1ccc(NS(=O)(=O)c2c(C)nc3scc(C)n3c2=O)cc1,104,90,117,-8
COc1ccc(OCCn2c(C(C)Oc3ccccc3)nc3ccccc32)cc1 (stereo not given),102,68,98,-5
Cc1ccc(C)c(NC(=O)CN2C(=O)CCc3ccccc32)c1,108,97,131,/
Cc1ccc(CN2C(=O)CSc3ccc(NC(=O)NC4CCC(C)CC4)cc32)cc1 (stereo not given),103,84,94,/
COc1ccc(NS(=O)(=O)c2ccc3c(c2)CC(C)N3C(C)=O)c(OC)c1 (stereo not given),103,101,87,/
CCOC(=O)c1cc(Nc2cc(Cl)c(OC)cc2OC)c2cc(C)ccc2n1,105,/,/,-6
Cn1[nH]c(Nc2ccccc2Cl)c(N=Nc2ccccc2)c1=O,104,95,99,-4
O=C(NCCc1ccc(Cl)cc1)c1ccc2nc(Cc3ccccc3)oc2c1,103,88,93,/
CC(C)CNc1ncnc2onc(-c3cccc(Cl)c3)c12,97,76,86,-19
COc1ccc(NC(=O)CCCSc2nc(-c3ccco3)cc(C(F)(F)F)n2)cc1,109,94,96,-6
S=C(NC1CCCCC1)N1CCn2c(nc3ccccc32)C1,101,81,91,5
Nc1nc(-c2ccc(Cl)cc2)c(N=Nc2ccc(S(=O)(=O)N3CCOCC3)cc2)s1,/,93,103,-25

Going on with the list:
canonical_smiles,GIV Gai3 FP,Sa growth inh second temp,Sa growth inh,HCMV UL50-53 inh
Nc1c(C(=O)C2CC2)oc2ccccc12,100,91,81,-72
COc1cc(S(=O)(=O)N2CCN=C2c2ccccc2)ccc1F,101,96,101,-9
Cc1ccc(-c2c(Nc3ccc(Cl)cc3)c(=O)c2=O)cc1,103,/,/,-5
CS(=O)(=O)c1nc2ccccc2n1Cc1ccccc1F,/,90,110,-3
CC1=CC(=C2C(=O)NC(=S)NC2=O)C=C(C(F)(F)F)O1,118,70,104,-15
CCN(CC)S(=O)(=O)c1cccc(-c2nnc(SCC(=O)Nc3cc(C)ccc3C)o2)c1,/,92,74,-34
CC(C)Cn1c(=O)c2sccc2n2c(CCCC(=O)NCCc3ccc(Cl)cc3)nnc12,100,84,98,/
Cc1ccc(OCc2cc(=O)n3ccsc3n2)c(C)c1,92,/,/,-83
CCCCNc1nc2c(S(=O)(=O)c3ccc(Cl)cc3)nnn2c2ccsc12,101,78,107,/
COc1ccc(N=C2SC(C(=O)N3CCN(c4ccc([N+](=O)[O-])cc4)CC3)CC(=O)N2C)cc1 (stereo not given),102,/,/,-19
COc1ccccc1CNC(=O)C1CCN(c2nnc(C)c3c(C)n(-c4ccccc4)nc23)CC1,105,84,99,-26
Cc1nc2[nH]c(=S)[nH]c2cc1Br,111,95,96,4
CC1(C)C(=O)N(CC(=O)NCc2ccccc2)c2ccccc21,100,/,/,-29
Cc1ccc(C2C=C(c3ccc(Cl)cc3)Nc3nc(NC(=O)c4ccco4)nn32)cc1 (stereo not given),33*,62,103,-52
CCOC(=O)c1cnc2c(c(C)nn2C)c1Sc1nnc(SC)s1,97,90,99,-13
CCSC1=NC2(CCN(C(=O)NC3CCCCC3)CC2)N=C1c1ccc(OC)cc1,109,100,110,/
CCc1sc(C(=O)O)cc1C,102,94,91,16
CC(=O)NC(C)Cc1cn(Cc2ccccc2)c2ccccc12 (stereo not given),100,78,101,-23
CN(C(=O)c1ccc2c(=O)n3c(nc2c1)CCCCC3)C1CCCCC1,98,86,114,/
O=C(Cc1ccc(-n2c(=O)c3sccc3n(Cc3ccccc3F)c2=O)cc1)NCc1ccco1,103,80,102,-7
COc1ccc2c(c1)CCCN2Cn1nc(COc2ccccc2)n(C)c1=S,/,80,95,-36
Cc1nc2c([nH]c3ccc(Br)cc32)s1,100,88,97,-29
COc1ccccc1NC(=O)C1OCCc2ccccc21 (stereo not given),103,88,93,-11
COc1cc(OC)c(OC)cc1CN(C)C1CCN(C)CC1,96,104,110,-3
CCn1ccc2cc(S(=O)(=O)N3CCCC(C(=O)N4CCN(c5ccc(F)cc5)CC4)C3)ccc21 (stereo not given),112,/,/,-9
Cc1cc(C)c(C(=O)N2CCC(CC(=O)N3CCN(c4ccccn4)CC3)CC2)[nH]1,102,/,/,-16
CC(C)Oc1ccc(CNC(=O)CCCn2c(=O)c3cccn3c3cccnc32)cc1,108,84,79,/
COc1ccccc1NC(=O)COc1ccc2oc3c(c2c1)CCCC3,100,96,121,/
COc1cccc(CCNC(=O)c2c(O)nc3ccccn3c2=O)c1,103,72,77,-37
CCCCn1c(=O)c2oc3ccccc3c2n(CC(=O)Nc2cc(C)ccc2C)c1=O,106,92,98,/
COC(=O)c1cc(CN2c3cccc4cccc(c34)S2(=O)=O)oc1C,/,93,102,-35
CC(=O)c1ccc(NC(=O)CN(C)S(=O)(=O)c2cc3c(cc2Cl)NC(=O)CO3)cc1,110,88,114,/
COc1ccccc1NC(=O)c1sc2nc(C)c(C(=O)Nc3ccc(C)cc3C)c(-c3ccc(Br)cc3)c2c1N,100,86,105,-1
COc1ncnc(OC)c1C,101,90,90,-37
